# Screening data deposited in PubChem by National Center for Advancing Translational Sciences (NCATS).
# HTT promoter inh – Primary qHTS for Identification of Small Molecule Inhibitors of Huntingtin Promoter Activity | hit rate 0.93% among 48,000 | HEK293 HTT promoter firefly luciferase reporter (activity 0% = vehicle and -100% = no light), 24 h | Potency, µM (doses to about 57.5 µM), for inactives: at the highest dose activity change, negative = inhibition, most hits filed as inhibitors | AID 1508623, 2021; active = well fitted inhibition curve with a large enough effect; inconclusive = small, poorly fitted or top-dose-only effect; inactive = no such curve, though single readings can be large or run the other way; note: nearly all actives have a fitted effect of over 50% in size
#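 Firefly luciferase signal from promoter-reporter HEK293 cells was scaled between vehicle (0%) and zero RLU (-100%). Compounds were tested at final concentrations of up to 57.5 uM over 24 h at 37 degrees C. PTC124 at 50 uM final served as control inhibitor.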
# PMP22 txn – Cell-based coincidence reporter assay to measure PMP22 gene transcription in S16 Pmp22-F2sN cells - Primary screen; S16 Pmp22-F2sN Schwann cells (luciferase reporters placed in the Pmp22 gene), FLuc/NLuc coincidence luminescence, 24 h; Potency, µM (series often up to 57.5 µM), for inactives: at the highest dose activity change, negative = inhibition, usual class: inhibitors; hit rate 2% among 43,000; AID 1508649, 2021; active = clear falling dose curves in both reporters; inconclusive = both reporters move, but less clearly or upward; inactive = either reporter flat; the % is the NLuc reporter signal; note: % is set by controls: 0 for no effect and ±100 for the full control effect; some results filed as inactive show a strong effect at the top dose
#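 qHTS, 1536-well. Cells seeded, compounds added by pin tool, 24 h 37C. Nano-Glo reagent 1 (lysis/FLuc), 10 min RT, read; Stop&Glo, 10 min RT, read NLuc.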
# Starred values were filed as active, the others as inactive; ? = inconclusive; . = not tested or not shown; [ ] = dose if it differs, or a comment. Potency is the fitted concentration of half-maximal effect. Only part of the results is shown, so the mix of outcomes need not match the whole.
SMILES,HTT promoter inh,PMP22 txn
O=C(NCc1cccc(F)c1)C1CCCN(C(=O)N2CCOc3ccccc32)C1 (configuration not stated),-7.0%,-8.1%
CCc1ccc(NC(=O)c2ccc3c(c2)c(C)c(C)n3Cc2ccccc2)cc1,?,?
Cc1nc2sc(C)c(C)n2c(=O)c1S(=O)(=O)NCCc1ccc(Cl)cc1,-7.3%,-27.2%
CCc1ccc(C(=O)c2cn(CC(=O)NCCc3ccccc3)c3nc(C)ccc3c2=O)cc1,4.9%,?
CCOc1ccc(CCNC(=O)c2csc3c2CCCCC3)cc1,-12.3%,-19.8%
CCOc1ccc(-c2nnc(SCC(=O)NCc3ccccc3)nc2-c2ccc(OCC)c(OC)c2)cc1OC,?,?
CCC(=O)N1c2ccccc2CC1C(=O)NCCCN1CCN(c2ccccc2)CC1 (configuration not stated),-10.4%,-12.0%
CC(=O)N1CCCc2cc(S(=O)(=O)N3CCC(C(=O)NCCC(C)C)CC3)ccc21,-13.9%,-8.4%
CCOc1cccc(CC(=O)N2CCc3c([nH]c4ccccc34)C2c2ccc(C)cc2)c1OCC (configuration not stated),-24.0%,1.2%
COc1ccccc1OCC(=O)NCC1(N2CCOCC2)CCCCC1,-17.7%,-12.8%
CCOc1ccc(NC(=O)C2CCCN(c3nnc(-n4c(C)ccc4C)s3)C2)cc1 (configuration not stated),-13.1%,-45.7%
Cc1cccc(S(=O)(=O)c2cn(Cc3ccc(F)cc3)c3cc(N4CCCCC4)c(F)cc3c2=O)c1,-26.8%,7.4%
Cc1ccc(C2=Nc3ccccc3NC(c3ccncc3)=N2)cc1,-23.6%,?
O=C(Cn1ncc2c3ccccc3n(Cc3ccccc3F)c2c1=O)NC1CCCCCC1,-9.7%,?
CC(C)Oc1ccc(CNC(=O)c2ccc3nc(Cc4ccccc4)oc3c2)cc1,-29.2%,-11.5%
COC(=O)c1cc2oc(C)cc2n1Cc1ccc(C)cc1,17.2%,-4.1%
COc1ccc(S(=O)(=O)N2CCN(c3ccccc3)CC2)cc1-c1noc(C)n1,-17.1%,9.9%
Cc1ccc(OCC(=O)Nc2ccccc2C(=O)OCc2cc(=O)n3ccsc3n2)cc1,42.0%[activator],?
Cc1ccc(S(=O)(=O)NCCSc2nnnn2-c2ccc(Cl)c(C(=O)O)c2)cc1,-8.2%,0.6%
COC(=O)CNC(c1ccccc1)c1cc(Br)ccc1NC(=O)c1ccc(Cl)cc1 (configuration not stated),-26.1%,-8.4%
O=C(Nc1ccc(OC(F)(F)F)cc1)C1CCN(S(=O)(=O)c2ccc3[nH]c(=O)ccc3c2)CC1,?,-0.7%
Cc1nc2nc(SCC(=O)NCCc3ccc(Cl)cc3)nn2c(C)c1Cc1ccccc1Cl,-10.4%,-26.5%
Cc1ccc(C(=O)Nc2nnc(S(=O)(=O)N(C)Cc3ccc(Cl)cc3)s2)cc1,11.2%,-12.4%
COc1cccc(NC(=O)CSC2=Nc3ccccc3C3=NC(CCC(=O)NCCc4ccccc4)C(=O)N23)c1 (configuration not stated),?,-31.5%
CCCC(=O)Nc1cccc(-c2cn3c(C)csc3n2)c1,-6.2%,-65.0%

# Shown with values under each structure: 4 of the compounds above
# Order of results: HTT promoter inh	PMP22 txn
CCOc1ccc(CCNC(=O)c2csc3c2CCCCC3)cc1
    -12.3%	-19.8%
CCOc1ccc(-c2nnc(SCC(=O)NCc3ccccc3)nc2-c2ccc(OCC)c(OC)c2)cc1OC
    ?	?
CCC(=O)N1c2ccccc2CC1C(=O)NCCCN1CCN(c2ccccc2)CC1 (configuration not stated)
    -10.4%	-12.0%
CC(=O)N1CCCc2cc(S(=O)(=O)N3CCC(C(=O)NCCC(C)C)CC3)ccc21
    -13.9%	-8.4%

# The list goes on:
SMILES,HTT promoter inh,PMP22 txn
O=C(Cc1cccs1)NC1CC(=O)N(c2ccc(Cl)cc2)C1 (configuration not stated),0.7%,18.7%
CCc1ccc(NC(=O)CCS(=O)(=O)c2ccc3c(c2)CCN3C(C)=O)cc1,-26.3%,-18.6%
CC(C)(C)c1ccc(C(=O)Nc2nc3nc(-c4ccccc4)cc(=O)n3[nH]2)cc1,-20.4%,6.0%
O=c1[nH]c(=O)n(C2CCCO2)cc1F (configuration not stated),-10.2%[116 µM],.
Cc1ccc(Cn2c(=O)n(Cc3ccc(Cl)cc3)c(=O)c3cccnc32)cc1,-6.9%,-18.0%
CC(C)(C)c1ccc(OCC(=O)Nc2ccc(S(=O)(=O)Nc3ncccn3)cc2)cc1,-4.8%,0.0%
COCCCNC(=O)c1ccc(Cn2c(=O)c3ccccc3n(Cc3c(C)cc(C)cc3C)c2=O)cc1,-5.9%,2.3%
Cc1nc(SCc2cc(=O)c3cccc(F)c3[nH]2)n[nH]1,10.0%,10.1%
COc1ccc(C2C(=O)N(C3CCCCC3)CC(=O)N2CCC2=CCCCC2)cc1 (configuration not stated),-19.3%,-24.2%
Cc1cc(-c2ccccc2)n2nc(-c3ccc(Cl)cc3)cc2n1,-6.8%,-8.2%
O=C(CN1C(=O)CCc2cc(Br)ccc21)Nc1ccc(OC(F)(F)F)cc1,-17.6%,-2.1%
CCOC(=O)c1[nH]c(C)c(CCC(=O)NCc2cccc(Cl)c2)c1C,-12.9%,-13.9%
COc1cc(OC)c(NC(=O)c2ccc3c(Cl)c4c(nc3c2)CCCC4)cc1Cl,-53.1%,12.0%
CCc1ccccc1NC(=O)Cn1nc(C(F)(F)F)c2c1CCCC2,-16.4%,0.8%
CCC(=O)Nc1cc2nn(-c3ccc(C)cc3)nc2cc1C,-61.7%,0.4%
CCCCN(C)CCCNC(=O)c1cc(-c2ccc(Br)s2)nc2ccccc12,-26.2%,?
COc1ccc(CCNC(=O)c2ccc3c(c2)CCN3S(C)(=O)=O)cc1,-12.5%,-20.3%
COc1cc2c(=O)n(Cc3ccco3)c(=O)n(CC(=O)Nc3ccc(F)cc3)c2cc1OC,-2.6%,-14.9%
CCCCN1CCC(CNC(=O)c2c3n(c4ccccc24)CCCO3)CC1,-30.8%,.
CCCCN(C)CCCNC(=O)c1cn(CC)c2ccc(S(=O)(=O)N3CCc4ccccc4C3)cc2c1=O,-3.1%,?
COc1cccc(NC(=O)Nc2ccc3nc(N4CCN(C)CC4)cc(C)c3c2)c1,8.9%,?
O=C(CCSCc1ccccc1Cl)N1CCN(c2ccc(F)cc2)CC1,-20.7%,-3.3%
COc1ccc(C2c3[nH]c4ccccc4c3CCN2C(=O)CCC2CCCC2)cc1 (configuration not stated),-27.7%,?
CCOc1ccc(N(C(=O)c2ccc(OC)cc2)S(=O)(=O)c2ccc3c(c2)n(C)c(=O)n3C)cc1,-13.5%,-13.0%
CC(C)Oc1ccc(CNC(=O)Cn2ncn3nc(-c4cccs4)cc3c2=O)cc1,-23.5%,-9.7%

# (list continues)
SMILES,HTT promoter inh,PMP22 txn
COC(=O)c1ccccc1NC(=O)C1CCCN(c2nnc(C)c3c(C)n(-c4ccccc4)nc23)C1 (configuration not stated),16.4%,-0.9%
COc1ccc(-c2cn3nc(N4CCCC(C(=O)Nc5ccccc5OC)C4)sc3n2)cc1 (configuration not stated),3.3%,?
Cc1[nH]c2ccccc2c1SCCNC(=O)c1ccccc1F,?,7.0%
O=C1c2[nH]nc(-c3ccccc3O)c2C(c2ccc(Cl)cc2)N1Cc1ccco1 (configuration not stated),?,?
COC(=O)c1cc(Cl)ccc1NC(=O)Cn1c(C)cc(C)c(C#N)c1=O,-7.2%,-6.7%
CCS(=O)(=O)c1ncc(N(Cc2ccccc2)Cc2ccco2)c(C(=O)Nc2cccc(Cl)c2C)n1,?,-1.6%
O=C(c1ccc(Cl)cc1)n1nc(-c2cccnc2)nc1NCc1ccc(F)cc1,-12.9%,-15.8%
O=C(CSc1nc(=O)n(Cc2ccncc2)c2c1CCC2)Nc1ccccc1,7.4%,?
COc1ccc(CCNc2nc(-c3ccc(Cl)cc3)cc(C(F)(F)F)n2)cc1OC,?,?
Cc1cccc(Cn2c(C)c(C)c3cc(C(=O)NCc4ccc(C)o4)ccc32)c1,?,?
CCOc1ccccc1C(=O)NCC(c1ccc(N(C)C)cc1)N1CCCC1 (configuration not stated),-5.5%,?
CCOC(=O)c1nc(Nc2ccc(Cl)cc2)c2c(C)noc2n1,-24.7%,33.9%
COc1ccc(CCNC(=O)Cc2c(C)c3c(cc(C)c4c(C)coc43)oc2=O)cc1OC,-7.2%,?
Fc1ccc2c(c1)NC(c1ccncc1)=NC(c1cccs1)=N2,-0.4%,-23.1%
Cc1cc(C)cc(NC(=O)CSc2ccc(-c3cccs3)nn2)c1,?,-77.8%
Cc1cccc(N2CCN(Cc3cc(=O)oc4cc(C)ccc34)CC2C)c1 (configuration not stated),-1.5%,-6.7%
O=C(NCc1cccs1)c1ccc2c(c1)sc1nc(-c3ccccc3)cn12,20.9%,-17.5%
CCN(CC)C(=O)Cn1c(=O)n(CCCCCC(=O)NCc2ccccc2)c(=O)c2sccc21,-9.9%,-8.6%
COCCn1cc(C(=O)NCCCOC(C)C)c2c3ccccc3n(C)c2c1=O,10.1%,-22.1%
CCOCCn1cnc2sc(C(=O)Nc3ccccc3C(=O)OC)c(C)c2c1=O,-13.8%[11.5 µM],-6.0%
Cc1cccc(C)c1OCC(=O)NCC1(N2CCOCC2)CCCCC1,-28.1%,?
Cc1ccc(CN2CCc3nc(SCC(=O)Nc4cccc(C)c4C)[nH]c(=O)c3C2)cc1,-16.5%,4.9%
COc1ccc2c(c1)c(=O)c(C(=O)c1ccc(F)cc1)cn2CC(=O)Nc1ccc2c(c1)OCO2,-9.0%,?
NC(=Nc1ccccc1)Nc1ccccc1,0.5%,.
COc1ccc(N(C(=O)c2ccccc2F)S(=O)(=O)c2ccc3c(c2)n(C)c(=O)n3C)cc1,0.0%,-1.3%

# Three compounds already listed, ordered by molar mass, descending:
SMILES,HTT promoter inh,PMP22 txn
CCOc1ccc(N(C(=O)c2ccc(OC)cc2)S(=O)(=O)c2ccc3c(c2)n(C)c(=O)n3C)cc1,-13.5%,-13.0%
CC(C)Oc1ccc(CNC(=O)Cn2ncn3nc(-c4cccs4)cc3c2=O)cc1,-23.5%,-9.7%
CCOC(=O)c1nc(Nc2ccc(Cl)cc2)c2c(C)noc2n1,-24.7%,33.9%

# (list continues)
SMILES,HTT promoter inh,PMP22 txn
CCN(CC)C(=O)c1ccc2c(c1)N(Cc1ccccc1F)C(=O)c1ccccc1S2=O (configuration not stated),-1.9%,-14.6%
COc1cccc(NC(=O)c2cc3c(=O)n(Cc4cccnc4)ccc3nc2C)c1,1.1%,-4.8%
CCCCOC(=O)/C(C#N)=C/c1ccc(-c2ccc(Br)cc2)o1,?,?
Cc1ccc(Cn2c(=O)n(CCCCC(=O)NCCc3ccc(Cl)cc3)c(=O)c3ccccc32)cc1,?,?
COC(=O)c1ccc(-n2nnc(-c3nc(-c4ccccc4Cl)no3)c2C)cc1,4.8%,-7.5%
COc1ccc(C2=Nc3ccc(C)cc3NC(c3ccc(Cl)cc3)=N2)cc1,7.8%,?
O=C(NCC12CC3CC(CC(C3)C1)C2)c1cc2nc(-c3ccc(Cl)cc3)cc(C(F)(F)F)n2n1,-7.3%,8.1%
O=C(NCc1ccccc1)C(=O)NCC(c1cccnc1)N1CCN(c2ccccc2)CC1 (configuration not stated),?,?
CCOc1ccc(Nc2oc(/C=C/c3ccc(OC)c(OC)c3)nc2C#N)cc1,-10.6%,?
CCCS(=O)(=O)c1c(Nc2ccccc2C)sc(C(=O)c2ccccc2)c1N,?,?
COc1ccc(CCNc2ncnc3c2cnn3-c2ccc(C)cc2)cc1,-15.6%,?
CCCCNC(=O)c1cc(-c2cccnc2)nc2ccc(S(=O)(=O)NCCCC)cc12,-16.2%,?
CCOc1ccc(-n2c(-c3ccc(Br)cc3)cc3c2CC(C)(C)CC3=O)cc1,-8.5%,?
CC1=C(C(=O)Nc2ccc(C)cc2C)C(c2cc(Br)ccc2F)n2ncc(C(=O)Nc3ccc(C)cc3)c2N1 (configuration not stated),-25.8%,?
Cn1c(SCc2ccccc2Cl)nc(=O)c2c1NC(=O)CC2c1cc(F)ccc1F (configuration not stated),-15.8%,-139.2%
Cc1cc(NS(=O)(=O)c2ccc(NC(=O)c3ccccc3C)cc2)nc(C)n1,-23.4%,-6.6%
CCc1cccc(NC(=O)CSc2ncc3c(n2)-c2ccccc2N(Cc2ccccc2C)S3(=O)=O)c1,-15.3%,-2.3%
COc1cc(CN2CCc3nc(N4CCN(c5ccccn5)CC4)ncc3C2)cc(OC)c1OC,?,8.91µM*
Cc1cc(C)c2c(=O)cc(C(=O)Nc3c(C)n(C)n(-c4ccccc4)c3=O)oc2c1,-5.5%[11.5 µM],11.9%
Cn1c(C(=O)NCc2ccc(F)cc2)cc2c(=O)n(C)c3ccccc3c21,1.4%,-0.4%
Oc1ccc(-c2nc(-c3ccc(F)cc3)c(-c3ccncc3)[nH]2)cc1,-2.9%,.
Clc1ccc(CNc2nc3ccccc3c3nc(-c4cccnc4)nn23)cc1,-5.0%,-20.0%
Cc1cc(C(=O)NCCc2ccc(Cl)cc2)c2c(C)nn(-c3ccccc3)c2n1,1.4%,-21.9%
CCOc1cc(C2Sc3ccccc3NC3=C2C(=O)c2ccccc23)ccc1O (configuration not stated),?,-25.7%
CCOC(=O)c1noc2nc(C)n(Cc3cccc([N+](=O)[O-])c3)c(=O)c12,-6.4%,5.2%
